Mtb growth – Mycobacterium tuberculosis H37Rv growth inhibition, cell based, confirmatory dose response (AID 1949); inhibition, % at 10 µg/mL, or IC50 in µg/mL where a hit was titrated; hit rate 1.6% among 100,000; most inactive calls were filed without a number and no value below 0 was filed;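 active means confirmed in a dose series; inconclusive means about 50% or more but not retested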;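 further: bacteria grown 7 days with compound before Alamar blue readout; 0% = untreated bacteria and 100% = reference antibiotic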
* hit, by the source's call; i = inactive; ? = inconclusive.

molecule | Mtb growth
COC(=O)c1cn(C(=O)c2cccc(F)c2)c2ccccc12 | i
CCOC(=O)c1sc(NC(=O)COc2ccccc2CC)nc1C | i
Cc1n[nH]c(C)c1NC(=O)c1cccc(F)c1 | i
Cc1ccnc(Nc2nc(-c3ccc(O)cc3)cs2)c1 | ?
c1csc(-c2nc(-c3ccncc3)no2)c1 | i
Cc1cc(-c2nn3c(C)nnc3s2)ccc1NC(=S)NC(=O)c1cccs1 | i
O=C(CC12CC3CC(CC(C3)C1)C2)NC(=S)Nc1ccccc1N1CCOCC1 | 2.5%
O=C(/C=C/c1cn(-c2ccccc2)nc1-c1cccs1)c1cccs1 | i
COc1ccc([N+](=O)[O-])cc1NC(=O)COc1ccc(-c2ccccc2)cc1Br | i
Cc1cccc(OCC(=O)NCCCc2ccccc2)c1C | 10.4%
Cc1ccccc1C(=O)Nc1c(C)cccc1C(C)C | 2.6%
Fc1ccc(-n2c(Cc3ccccc3)nnc2SCc2ccc(Br)cc2)cc1 | 6.7%
CCc1ccccc1NS(=O)(=O)c1ccc(OC)c(Cl)c1Cl | i
NCCOCc1ccccc1Cl | 6.2%
Cc1ccc(-c2nnc(SC(C(=O)c3ccccc3)c3ccccc3)o2)cc1 (stereo unspecified) | i
CN1CCN(NC(=S)NC2CCCC2)CC1 | i
COc1ccc(N(CC(=O)Nc2ccccc2C(=O)NC(C)c2ccccc2)S(C)(=O)=O)cc1OC (stereo unspecified) | i
COCCCNC(=O)Nc1ccc(Br)cc1Cl | i
CCc1nnc(NC(=O)c2c(OC)cccc2OC)s1 | i
Cc1ccc(S(=O)(=O)N(C)c2ccc(C(=O)Nc3c(C)n(C)n(-c4ccccc4)c3=O)cc2)cc1 | i
O=C(O)C1CCCN1c1ncnc2ccccc12 (stereo unspecified) | i
CCOC(=O)C1=C2c3ccccc3CC3(CCCC3)N2C(=O)C1=O | 8.0%
COCCCN1C(=O)c2oc3ccccc3c(=O)c2C1c1cccc(Br)c1 (stereo unspecified) | i
O=C(COc1ccccc1Cl)Nc1ccc(S(=O)(=O)Nc2nccs2)cc1 | i
CCCCc1cc(=O)oc2cc(OC(=O)c3cccs3)c(Cl)cc12 | i
COc1ccc(NC(=O)CSc2nnc(Cc3ccccc3)n2-c2ccc(C)c(C)c2)cc1 | i
CCc1ccc(S(=O)(=O)Nc2ccc(O)c(Br)c2)cc1 | i
CCOC(=O)C1CCN(C(=O)CN(c2cccc(OC)c2)S(=O)(=O)c2ccc(C)cc2)CC1 | i
CCCC(C)C(=O)Nc1ccc(Br)cc1C (stereo unspecified) | i
Nc1ncnc(NCc2ccc(F)cc2)c1[N+](=O)[O-] | 2.8%
CCn1c(Cc2ccccc2)nnc1SCC(=O)NCc1ccccc1 | i
COC(=O)Cc1c(C)c2cc(Cl)c(OCc3ccccc3OC)cc2oc1=O | i
Cc1cccc(NC(=O)COc2ccccc2C)c1 | 6.9%
COCCCNC(=S)NNC(=O)C(C)Oc1ccc2c(c1)OCO2 (stereo unspecified) | i
COc1cc(CNCCCN2CCOCC2)cc(Br)c1OCc1ccc(Cl)cc1 | 0.1%
O=c1c2ccccc2nc(/C=C/c2ccc3c(c2)OCO3)n1-c1ccccc1Cl | i
Cn1c(=N)n(CC(O)COc2ccccc2)c2ccccc21 (stereo unspecified) | i
Cc1ccc(Cl)cc1NC(=O)C1CC(=O)N(C2CCCCC2)C1 (stereo unspecified) | 9.4%
Cc1ccccc1OCC(=O)Nc1ccccc1C(C)(C)C | i
Nc1nc(-c2cccc(NC(=O)c3ccccc3)c2)cs1 | 2.0%
COc1ccccc1NC(=O)CN(c1ccc(Cl)cc1)S(C)(=O)=O | i
CCCc1nc2ccc(Br)cc2c(=O)n1-c1ccccc1F | 8.4%
CCCCc1ccc(NC(=O)CN2C(=O)c3cccc4cccc2c34)cc1 | i
O=C(Nc1ccccc1Sc1ncnc2scc(-c3ccccc3)c12)c1ccco1 | i
CCCc1cc2c(=O)c(-c3nc4ccccc4s3)c(C)oc2c(CN2CCN(C)CC2)c1O | i
COC(=O)c1ccccc1NC(=O)C(N)=O | i
COc1ccc(NC(=O)COc2ccc(Br)cc2C)cc1OC | i
COc1cccc(C(O)c2nc3ccccc3n2Cc2ccccc2)c1OC (stereo unspecified) | 4.3%
O=C(Nc1ccc(Br)cc1F)C1CCN(C(=O)c2ccc([N+](=O)[O-])cc2)CC1 | i
NS(=O)(=O)c1ccc(CNC(=S)Nc2ccc([N+](=O)[O-])cc2)cc1 | i

(further entries)
molecule | Mtb growth
COc1ccc(CCNC(=O)Cn2cnc3sc(C)c(-c4ccc(F)cc4)c3c2=O)cc1OC | 1.6%
COc1cccc(-c2cc(C(F)(F)F)n3ncc(C(=O)N(C)CCc4ccccn4)c3n2)c1 | i
C=CCn1c(SCC(C)=O)nc2scc(-c3cccs3)c2c1=O | i
O=C(COc1ccccc1)Nc1nnc(SCC(=O)N2CCN(C(c3ccccc3)c3ccccc3)CC2)s1 | 5.0%
CN(C)CCCNc1cc(Cl)c(S(=O)(=O)N2CCCCC2)cc1C(=O)O | i
Cc1ccc(NCCC(=O)c2ccc(Cl)cc2)cc1C | ?
O=C(Cn1ncnn1)OCc1ccccc1Cl | i
O=C1CCC([N+](=O)[O-])C(c2ccc(-c3ccccc3)cc2)N1 (stereo unspecified) | i
COc1ccccc1NC(=S)N1CCN(c2ccc([N+](=O)[O-])cc2)CC1 | i
COCCCNC(=O)C12CCC(C)(C(=O)C1)C2(C)C (stereo unspecified) | i
CCOC(=O)c1cccc(NC(=S)NC)c1 | 4.0%
CCc1cccc(C)c1NC(=O)COc1ccccc1C(=O)Nc1ccc(C#N)cc1 | i
CC(=O)Oc1ccc(C(=O)Nc2ccccc2C(=O)N2CCCCC2)cc1 | i
Cc1cccc(NC(=O)CN(c2ccccc2)S(=O)(=O)c2ccccc2[N+](=O)[O-])c1C | i
CCOC(=O)c1nn(-c2ccccc2)c(C#N)c1N | i
COc1cc(Cl)c(C)cc1NC(=O)Cc1ccc(OC)c(OC)c1 | i
COc1cc(Br)cc2cc(C(=O)Nc3ccc(C)c(C)c3)c(=O)oc12 | i
Fc1ccc(C2NC(=S)NC3=C2N2CCC3CC2)cc1 (stereo unspecified) | i
Cc1cc(Oc2c(C(F)(F)F)oc3c(CN(C)C)c(O)ccc3c2=O)cc(C)c1Cl | i
COc1ccc(NC(=O)N2CCN(c3ccccn3)CC2)cc1OC | i
CCSc1nc2c(c(=O)[nH]1)C(c1cccs1)C1=C(CC(C)(C)CC1=O)N2 (stereo unspecified) | i
Cc1cccc(Cc2cnc(NC(=O)c3ccccc3[N+](=O)[O-])s2)c1 | i
COC(=O)c1ccccc1NC(=O)NC1CCCc2ccccc21 (stereo unspecified) | i
CCOc1ccc(NC(=O)c2cc(Cl)ccc2OC)c([N+](=O)[O-])c1 | i
Cc1ccc(OC(=O)COc2cccc(Br)c2)cc1C | i
O=C(Nc1cc(Cl)c(Cl)cc1Cl)c1ccccc1Br | i
COCCNS(=O)(=O)c1cc(OC)c(C)cc1C | i
COc1ccccc1NC(=O)NCCc1ccncc1 | i
O=C(O)c1cccc(CSc2n[nH]c(-c3ccccc3)n2)c1 | i
COC(=O)c1cc(-c2ccc([N+](=O)[O-])cc2)n[nH]1 | 1.3%
CC(Oc1ccc(Cl)cc1)C(=O)NCC1CCCO1 (stereo unspecified) | i
O=C(O)C(Cc1cc2ccccc2[nH]1)N1C(=O)C2CC=C(Cl)CC2C1=O (stereo unspecified) | i
O=C(Nc1ccc2nc(-c3cccs3)[nH]c2c1)c1cccs1 | 15.0%
Cc1ccc(C(=O)Nc2ccc(Br)cc2F)c(C)c1 | 7.2%
C=CCNS(=O)(=O)c1ccc(OC)c(I)c1 | i
CCOc1ccc2c(=O)c(-c3ccccc3OC)c(C(F)(F)F)oc2c1 | i
CCn1c(SCC(=O)NC2CCCCC2)nnc1-c1ccncc1 | i
CCOC(=O)c1ccc(NC(=S)Nc2ccc(NS(=O)(=O)c3ccc(C)cc3)cc2)cc1 | i
CCOc1ccc(NC(=O)C(=O)N(CC)CC)cc1 | 1.6%
CC(C)c1[nH]nc2c1C(c1ccco1)C(C#N)=C(N)O2 (stereo unspecified) | 1.1%
Cc1c(NC(=O)Nc2ccc(C#N)cc2)c(=O)n(-c2ccccc2)n1C | i
O=C1Nc2ccc(Br)cc2C1Cc1ccccc1F (stereo unspecified) | 1.8%
COc1cccc(Nc2nc(-c3cccc(NC(C)=O)c3)cs2)c1 | 27.7%
COc1ccc(C(=O)COc2noc3nc(-c4ccccc4)ccc23)cc1 | 10.7%
c1ccc(Oc2cccc(OCCn3cncn3)c2)cc1 | i
CS(=O)(=O)N(CC(=O)O)Cc1ccc(F)cc1 | i
CNC(=O)C1=C(C)NC(=S)NC1c1c(OC)ccc2ccccc12 (stereo unspecified) | i
CC(=O)Nc1cccc(-c2csc(Nc3cccc(C)n3)n2)c1 | i
Cc1cc(OCC(=O)C(C)(C)C)c2c3c(c(=O)oc2c1)CCCC3 | i
COc1ccc(-c2cc(-c3ccc4ccccc4c3O)[nH]n2)cc1 | ?

Exported field by field: four of the compounds above.
smiles: CC(Oc1ccc(Cl)cc1)C(=O)NCC1CCCO1 (stereo unspecified)
  Mtb growth = i
smiles: O=C1CCC([N+](=O)[O-])C(c2ccc(-c3ccccc3)cc2)N1 (stereo unspecified)
  Mtb growth = i
smiles: COC(=O)c1cn(C(=O)c2cccc(F)c2)c2ccccc12
  Mtb growth = i
smiles: COc1ccc(CCNC(=O)Cn2cnc3sc(C)c(-c4ccc(F)cc4)c3c2=O)cc1OC
  Mtb growth = 1.6%

More compounds follow.
molecule | Mtb growth
COC(=O)c1c(NC(=S)Nc2ccc(C(=O)N3CCOCC3)cc2)sc2c1CCC(C)C2 (stereo unspecified) | i
CC1CN(C(=O)CSCc2ccccc2)CC(C)O1 (stereo unspecified) | i
CCC(C(=O)Nc1ccccc1NC(=O)C(CC)c1ccccc1)c1ccccc1 (stereo unspecified) | 5.5%
O=C(COc1ccc(Cl)cc1Cl)NCc1ccccc1 | 5.5%
Cn1c(SCC(=O)c2ccc3c(c2)Cc2ccccc2-3)nnc1-c1cccc(N)c1 | 4.9%
Cc1cccc(C)c1NC(=S)Nc1ccccc1F | i
COc1cc(NC(=O)c2ccc(-c3ccccc3)cc2)ccc1NC(=O)c1ccccc1Cl | i
CCOC(=O)c1ccc(NC(=S)N2CCN(c3ccccn3)CC2)cc1 | i
C#CC(C)(C)NS(=O)(=O)c1cccc2nsnc12 | i
O=C(Cc1ccc(Cl)cc1)Nc1ccc(C(=O)Nc2ccc(Br)cc2)cc1 | i
CCn1c(COc2ccc(C(C)C)cc2)nnc1SCC(=O)Nc1cccc(SC)c1 | i
COc1ccc2nc3c(nc2c1)C(=O)c1ccccc1-3 | i
CCOC(=O)c1c(NC(=O)C2CCCN2S(=O)(=O)c2cccc3nsnc23)sc(C)c1C (stereo unspecified) | i
COc1cc(NS(=O)(=O)c2ccccc2)c(Cl)c(C(=O)O)c1 | i
O=C(ON1C(=O)CCC1=O)c1ccc(Br)o1 | i
CCOC(=O)N1CCN(C(=S)Nc2cccc(C)c2)CC1 | 1.5%
CCN(c1cccc(C)c1)S(=O)(=O)c1cc([N+](=O)[O-])ccc1C | i
N/C(=N\c1nc(CSc2ccc(Cl)cc2)cc(=O)[nH]1)Nc1ccc(Oc2ccccc2)cc1 | i
Cc1cccc(NS(=O)(=O)c2ccc(NS(=O)(=O)c3cccs3)cc2)c1 | 4.3%
O=C(CSc1nnc(-c2ccc(Cl)cc2)n1-c1ccc(F)cc1)Nc1ccccc1Cl | i

The final three entries of the part before lead into the next:
molecule | Mtb growth
N/C(=N\c1nc(CSc2ccc(Cl)cc2)cc(=O)[nH]1)Nc1ccc(Oc2ccccc2)cc1 | i
Cc1cccc(NS(=O)(=O)c2ccc(NS(=O)(=O)c3cccs3)cc2)c1 | 4.3%
O=C(CSc1nnc(-c2ccc(Cl)cc2)n1-c1ccc(F)cc1)Nc1ccccc1Cl | i
COc1cccc(CNc2ccc(O)cc2)c1OCc1ccc(Cl)cc1Cl | 8.9%
Cc1ccc(/C=C(\C#N)c2nc3ccc(Cl)cc3c(=O)[nH]2)o1 | i
CC(C)(C)c1ccc(OC(=O)c2cnsn2)cc1 | i
O=C(Cc1cccs1)N1CCN(S(=O)(=O)c2ccccc2)CC1 | i
NC(=O)CSc1ncnc2scc(-c3ccccc3)c12 | i
COc1ccc(NC(=O)c2ccccc2NC(=O)C2CCCO2)cc1 (stereo unspecified) | i
COC(=O)Cc1c(C)c2cc(Cl)c(OCC(=O)C(C)(C)C)cc2oc1=O | i
COc1ccc(NC(=O)C2C3CCC(C3)C2C(=O)O)cc1OC (stereo unspecified) | i
CC(=O)c1cccc(NC(=O)CN2C(=O)c3ccccc3S2(=O)=O)c1 | i
COC(=O)NNC(=S)Nc1ccc(Cl)cc1Cl | i
CS(=O)(=O)N1CCN(c2ccc(NC(=O)CSc3nc(-c4ccccc4)cs3)cc2)CC1 | i
COCCCNC(=S)NNC(=O)c1ccc2c(c1)OCO2 | i
CCCCOC(=O)Nc1cccc(C(C)=O)c1 | i
COc1ccc(-n2c(/C=C/c3ccc4c(c3)OCO4)nc3ccccc3c2=O)cc1 | i
CCN(CC)C(=O)Cn1cc(C#N)c2ccccc21 | i
CC(C)C(=O)Nc1cccc(NC(=O)c2cccc3c(Br)cccc23)c1 | i
CS(=O)(=O)N(CC(=O)Nc1cccc(F)c1)Cc1ccccc1 | 6.0%
Cc1sc2nc(C)n(N)c(=O)c2c1C | i
Cc1cc(C)c(NS(=O)(=O)c2cccc(C(=O)O)c2)c(C)c1 | i
Cc1ccc(S(=O)(=O)Nc2ccccc2C(=O)N2CCCC2)cc1 | 1.6%
COCC(=O)NNC(=O)Nc1cc(C)ccc1OC | i

Assay outcomes deposited in PubChem BioAssay by Southern Research Institute.

This is a subset; the hit share may differ from the screen's.
